T cruzi inh – blocks replication of Trypanosoma cruzi; T. cruzi beta-gal in NIH3T3, luminescence, 90 h; 300,000 compounds, 1.4% hits; inhibition, % (test concentration not listed); AID 1885;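 active means mean inhibition across valid replicates above about 55%, limit read from the data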;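 further: signal also drops with host cell toxicity which is not excluded here; 0% = plate median of DMSO wells and 100% = zero luminescence signal; higher percent means less beta-gal luminescence so fewer parasites; stock transfer was 50 nL into about 50 µL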
rRNA inh HTS – inhibitors of bacterial rRNA selective over humanized ribosomes; E. coli WT GFP vs humanized-ribosome RFP mutants, fluorescence, 24 h; stronger effect = lower value; DMSO median 0, no signal -100; 350,000 compounds, 1.6% hits; AID 720706; GFP signal change (wild-type ribosome), % (concentration not given with the values);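 active means significant combined selectivity score with lowered wild-type GFP, culture density cut under 30%, mutant RFP and density less affected; inactive means any of these conditions unmet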; further: one replicate is shown; some compounds called inactive have numbers as strong as hits
Beta apoptosis – beta cell apoptosis inhibition; INS-1E cytokine-induced death, ATP luminescence, 48 h; percent of positive-control rescue, neutral wells zero; protection from apoptosis, % (concentration not given with the values); 300,000 compounds, 0.8% hits;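 active means all replicates at 75% or more, or half of them and the mean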;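 further: 0% = cytokine-treated negative control wells and 100% = positive control rescue; higher means more ATP so stronger rescue from cytokine killing; wells of about 40 µL received 100 nL stock; the first replicate is given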
Ecoli growth – E. coli growth inhibition; Escherichia coli growth, OD600, 23 h; stronger effect = lower value; OD600 absorbance (no concentration beside the values); 330,000 compounds, 0.21% hits; AID 1053175;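 active means OD600 absorbance below the run mean of sample wells minus 3.6 SD, in any replicate, cut at about 0.56 in these data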;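 further: stock transfer was 300 nL into about 60 µL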
Bfl-1 A1 inh – inhibitors of the anti-apoptotic protein A1, read as caspase activation; caspase activation, % (test concentration not listed); AID 2462; MEF A1-2A-BIM cells, Caspase-Glo 3/7 luminescence, 3 h; percent of clofoctol response, vehicle zero; 330,000 compounds, 0.066% hits;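 active means over half of replicate activation scores above 10%, or exactly half above 10 with the replicate mean above 10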;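 further: wells of about 30 µL received 50 nL stock; many hits fall short of the cut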
UCH37 inh – inhibitors of human deubiquitinating enzyme UCH37; purified proteasome/UCH37, Ub-AMC cleavage fluorescence; inhibition, % (no concentration beside the values); Q9Y5K5; 330,000 compounds, 0.33% hits;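 active means mean of two replicates above 20%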;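 further: 0% = compound-free wells with enzyme and 100% = wells lacking proteasome; stock transfer was 100 nL into about 20 µL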
Target sequence (Q9Y5K5 whole entry, looked up): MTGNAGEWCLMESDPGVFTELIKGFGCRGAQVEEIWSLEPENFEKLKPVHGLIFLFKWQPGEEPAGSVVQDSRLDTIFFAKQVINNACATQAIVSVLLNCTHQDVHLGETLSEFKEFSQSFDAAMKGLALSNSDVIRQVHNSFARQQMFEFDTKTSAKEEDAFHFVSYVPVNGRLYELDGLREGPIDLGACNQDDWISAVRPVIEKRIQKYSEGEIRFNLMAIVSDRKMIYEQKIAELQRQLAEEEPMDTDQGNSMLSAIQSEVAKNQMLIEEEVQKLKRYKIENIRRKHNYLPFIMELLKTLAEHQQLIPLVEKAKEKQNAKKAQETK
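System: Proteasome-associated human UCH37 deubiquitinase; Input: 0.15 nM proteasome in added enzyme buffer; Also added: Ub-AMC substrate from 1 µM stock; Incubation: 30 min compound-proteasome preincubation then 25 min substrate reaction, room temperature; Detection: fluorescence, ex 355 nm, em 460 nm; Read-out: % inhibition of Ub-AMC cleavage fluorescence; Benchmarks: no-proteasome and no-compound wells.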
MLL AF4-AF9 inh – blocks AF4 peptide binding to human AF9; AlphaScreen, biotin-AF4 peptide binding to FLAG-AF9; 350,000 compounds, 0.47% hits; inhibition, % at 10 µM; AID 651704; P42568;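 active means every replicate reaching a set inhibition limit, whatever the replicate mean, cut at about 25% in these data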;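 further: 0% = plate neutral control median and 100% = total signal loss; the record names both 10 and 1 µM as test concentration; the first replicate is given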
Target sequence (P42568 whole entry, looked up): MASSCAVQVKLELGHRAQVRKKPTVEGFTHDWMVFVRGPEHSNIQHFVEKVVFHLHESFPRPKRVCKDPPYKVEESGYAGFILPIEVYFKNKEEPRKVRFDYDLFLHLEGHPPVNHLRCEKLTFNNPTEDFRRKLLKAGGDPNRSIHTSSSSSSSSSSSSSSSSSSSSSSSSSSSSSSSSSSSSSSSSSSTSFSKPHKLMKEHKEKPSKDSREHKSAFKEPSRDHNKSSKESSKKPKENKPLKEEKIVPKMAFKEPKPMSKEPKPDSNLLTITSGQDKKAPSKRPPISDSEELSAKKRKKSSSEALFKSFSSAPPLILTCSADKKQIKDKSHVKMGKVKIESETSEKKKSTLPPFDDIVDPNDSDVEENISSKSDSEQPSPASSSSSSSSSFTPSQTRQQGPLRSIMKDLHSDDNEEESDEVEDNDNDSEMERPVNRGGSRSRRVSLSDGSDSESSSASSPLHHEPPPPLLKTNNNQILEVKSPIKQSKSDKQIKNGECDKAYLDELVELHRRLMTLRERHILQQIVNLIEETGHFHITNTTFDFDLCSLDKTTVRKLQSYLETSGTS
FGF22 binding – shifts melting point of recombinant human FGF22. recombinant FGF22 thermal shift, SYPRO orange fluorescence; percent of sucrose octasulfate shift, DMSO zero. Q9HCT0. 340,000 compounds, 1.5% hits. calls only at 9.99 µM;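 active means melting point raised past a set limit in the mean and every replicate; three in four hits are not shown here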
Target sequence (Q9HCT0 whole entry, looked up): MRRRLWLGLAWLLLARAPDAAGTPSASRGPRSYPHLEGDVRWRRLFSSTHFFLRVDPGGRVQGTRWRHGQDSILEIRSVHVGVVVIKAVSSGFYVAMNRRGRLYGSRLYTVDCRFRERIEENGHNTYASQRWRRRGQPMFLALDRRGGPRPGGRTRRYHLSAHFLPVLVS
rRNA inh HTS OD600 – also measured in rRNA inh HTS; calls as there; OD600 change, %; measured here: OD600 growth;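 optical density of the mix in the first replicate; 0 = DMSO median and -100 = no signal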
rRNA inh HTS RFP – further read-out of rRNA inh HTS, marked with its call; RFP signal change, %; measured here: RFP humanized mutant strains;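 first replicate; 0 = DMSO median and -100 = no signal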
* hit, by the source's call; i = inactive; . = no result given. A portion of the library; the hit share may differ from the screen's.

SMILES	T cruzi inh	rRNA inh HTS	rRNA inh HTS OD600	rRNA inh HTS RFP	Beta apoptosis	Ecoli growth	Bfl-1 A1 inh	UCH37 inh	MLL AF4-AF9 inh	FGF22 binding
O=C(c1ccco1)N(Cc1cccc([N+](=O)[O-])c1)c1ccc(Br)cc1	-3	-14	-9	0.4	-5	0.69	-0.1	3.9	3.1	i
O=C(CN1CCCCC1)Nc1cccc2c1OCO2	-14	.	.	.	3	0.71	0.3	1.4	.	.
CC(C)=CCN1CCN(Cc2cc(F)ccc2-n2nc(C)cc2C)CC1CCO (centres undefined)	-2	.	.	.	-3	0.68	0.0	0.9	-2.4	i
COc1ccc(C2=NN(c3nc(-c4ccccc4)c(CC(=O)O)s3)C(c3ccco3)C2)cc1 (centres undefined)	.	-10	-5	0.0	2	0.7	0.0	-87	4.8	i
COc1ccc(C(=O)c2ccc(CC#N)s2)cc1	7	.	.	.	-2	0.69	-2.3	4.3	.	.
Cc1cccn2c(=O)c3cc(C(=O)NCC4CCCO4)c(=N)n(CCN4CCOCC4)c3nc12 (centres undefined)	11	-3	4	7.1	7	.	-1.4	.	.	.
Cc1ccc(-c2noc(CCC(=O)NCc3ccc4c(c3)OCO4)n2)cc1	.	.	.	.	-4	0.7	0.2	0.8	.	.
CCN1CCCC1CNC(=S)Nc1ccc(C(C)=O)cc1 (centres undefined)	-4	3	4	0.5	1	0.7	0.8	0.9	3.0	i
O=[N+]([O-])c1ccc(S(=O)(=O)N/N=C/c2ccc3c(c2)OCO3)cc1	5	11	9	-1.2	-4	.	0.2	.	-6.7	i
CCOC(=O)N1CCN(C(=O)c2ccc3c(=O)n(CC4CCCO4)c(=S)[nH]c3c2)CC1 (centres undefined)	-2	.	.	.	.	0.74	-0.8	2.7	.	.
CCn1c(CNC(=O)c2ccco2)nnc1SCC(=O)Nc1ccc(Br)cc1F	12	.	.	.	-7	0.67	0.1	-0.7	.	.
O=C(c1cc2ccccc2o1)N1CCN(S(=O)(=O)/C=C/c2ccccc2)CC1	15	8	2	-3.1	-6	0.73	0.3	0.9	-3.5	.
Nc1nonc1C(=O)NCCNc1ncccc1[N+](=O)[O-]	-9	11	-5	2.5	-1	0.67	-1.4	3.5	-0.8	i
CC(C)N(C1=N/C(=C\c2ccco2)C(=O)N1c1ccccc1)C(C)C	17	.	.	.	3	0.74	0.0	-5.7	.	.
Cc1ccc(NC(=O)C2CCN(S(=O)(=O)c3c(C)n[nH]c3C)CC2)c(C)c1	-15	7	9	-1.0	1	0.73	0.4	0.9	1.0	i
COc1ccc(CCN(Cc2ccccn2)C(=S)Nc2cccc(SC)c2)cc1OC	8	2	7	-4.8	1	0.65	0.3	5.5	-0.2	i
Cn1cnc(S(=O)(=O)N2CCN(C(c3ccc(F)cc3)c3ccc(F)cc3)CC2)c1	-5	1	-13	-1.9	-1	0.66	1.2	0.6	3.4	i
Cc1ccc(-n2ncc3c2CCCC3NC(=O)c2cnccn2)cc1C (centres undefined)	-25	2	8	-2.5	2	0.69	-1.4	7.6	-2.5	i
Clc1ccc2nncn2n1	-3	15	13	3.8	-7	0.74	0.1	4.6	2.4	i
COc1ccc(C(CNC(=O)Nc2ccc(Cl)cc2)N2CCN(C)CC2)cc1 (centres undefined)	26	-25	-22	5.1	-5	0.64	2.4	4.5	-1.1	i
COc1cc(C(=O)Nc2scc(-c3ccccc3)c2C(=O)O)cc(OC)c1OC	6	-33	-38	-6.1	-1	0.62	1.1	3.8	-5.3	.
Cc1ccc(C(C)CCN2CCC(n3nccc3NC(=O)c3ccccc3)CC2)o1 (centres undefined)	29	2	13	-1.0	3	0.69	0.7	-0.8	6.2	i
CC1CCN(C(=O)c2ccc3c(c2)OCO3)CC1	-6	10	8	2.5	0	0.67	0.4	-0.4	0.1	i
Cn1c(N)c(C(=O)COC(=O)Cc2ccc(Cl)cc2Cl)c(=O)n(C)c1=O	.	-9	-21	-1.4	.	0.67	.	4.5	-0.5	i
O=C(COc1cccc2ccccc12)N1c2ccccc2CCc2ccccc21	12	.	.	.	0	0.77	1.3	-0.9	.	.
Following part
SMILES	T cruzi inh	rRNA inh HTS	rRNA inh HTS OD600	rRNA inh HTS RFP	Beta apoptosis	Ecoli growth	Bfl-1 A1 inh	UCH37 inh	MLL AF4-AF9 inh	FGF22 binding
Cn1cnc2cc(OC(=O)c3ccccc3)ccc21	-12	.	.	.	-5	0.62	1.0	1.1	.	.
CCCCNC(=S)NNC(=O)c1ccoc1C	5	.	.	.	-24	0.74	-0.1	5.1	.	.
Cc1nc2ccccc2nc1-c1ccc([N+](=O)[O-])cc1	.	-4	-11	-1.5	.	0.68	.	3.9	2.4	i
CC(=O)Nc1ccccc1C(=O)C(=O)Nc1ccc(C(=O)N2CCOCC2)cc1	-15	6	7	3.8	-2	0.73	1.7	4.2	1.3	i
Cc1cc(O)c(-c2cc(O)c(C)cc2O)cc1O	55*	10	4	4.1	.	0.67	-0.8	-191	-5.4	i
O=C(O)C1CC(=O)N(CCc2ccc(F)cc2)C1 (centres undefined)	6	13	7	2.0	.	0.64	0.3	1.2	-9.1	i
CSc1cc(-c2ccco2)oc1C(=O)c1ccco1	10	16	-13	1.2	-1	0.71	-0.6	3.7	.	i
Cc1ccc(C(=O)Nc2nnc(S(=O)(=O)N3CCCCCC3)s2)cc1	-3	.	.	.	-1	0.78	0.8	2.3	-4.7	i
Cc1cc(C)n(CC(O)Cn2c3ccccc3c3ccccc32)c(=O)n1 (centres undefined)	2	.	.	.	.	0.69	0.2	3.9	.	.
COc1cc(Cl)ccc1OCc1cc(C(=O)N2CCCCCCC2)no1	-18	8	4	5.0	-2	0.67	-0.8	0.9	-1.0	i
O=C(CSc1nc2ccccc2[nH]1)N1CCN(C(=O)c2ccco2)CC1	-10	.	.	.	-4	0.72	-0.1	7.1	.	.
COc1cc(S(=O)(=O)N(CCc2ccccc2)Cc2cccs2)ccc1-n1cnnn1	32	.	.	.	3	0.74	-0.4	1.9	.	.
COc1ccc(CN(CC(=O)NCc2ccccc2)C(=O)c2csnn2)cc1	-6	15	15	0.3	.	0.7	0.5	-0.2	-2.7	i
O=S(=O)(Nc1ccc2cn[nH]c2c1)c1ccc(Cl)s1	-20	-33	-35	-6.1	-2	0.63	0.0	1.0	-0.7	.
CCOC(=O)C1=C(N)OC2=C(C(=O)CCC2)C1c1ccccc1OC (centres undefined)	-17	8	11	-0.2	2	0.71	-0.2	4.6	-2.6	i
Cn1c(N)c(C(=O)CSc2nnc(C3CC3)n2Cc2ccccc2)c(=O)n(C)c1=O	.	-5	-3	-8.4	2	0.65	1.0	2.7	-0.1	i
COc1cc(S(=O)(=O)N(Cc2cccc(OC)c2OC)CC2CCCO2)ccc1-n1cnnn1 (centres undefined)	-2	-11	-3	4.6	-4	0.73	0.6	1.9	-11	i
Cc1ccc(C(=O)COC(=O)CNC(=O)Cc2ccccc2)cc1[N+](=O)[O-]	-8	.	.	.	-4	0.72	0.8	0.5	.	.
O=C(O)CSc1nnc(Cn2c(=O)sc3ccccc32)n1-c1cccc(Cl)c1	-12	.	.	.	8	0.7	-0.4	-2.3	.	.
O=c1c2[nH]c3cccc(Cl)c3c2ncn1CC1CCCO1 (centres undefined)	-2	15	9	2.4	-10	0.69	0.8	-5.3	4.1	i
CCS(=O)(=O)c1ccc(-c2csc(-c3ccccc3)n2)c(Cl)c1Cl	12	.	.	.	15	0.7	-0.1	5.3	.	.
COc1cccc(OC)c1C(=O)NNC(=O)c1ccc(F)cc1	-11	5	10	-0.2	2	0.71	0.2	5.1	-2.9	i
Cc1ccc(CCc2nnc(SCC(=O)Nc3ccccc3Cl)n2-c2ccccc2)o1	13	-45	-64	-14	-4	0.73	0.3	-1.0	0.4	i
Cc1ccc(C)c(NC(=O)c2ccc(N(C)S(C)(=O)=O)cc2)c1	-6	.	.	.	3	0.71	-1.8	1.8	.	.
Cc1ccc(OCCN2C(=O)c3ccccc3C2=O)c([N+](=O)[O-])c1	3	-6	-15	-0.6	-6	0.71	-0.9	5.9	-7.7	i

Quoted from the listing.
COc1cccc(OC)c1C(=O)NNC(=O)c1ccc(F)cc1 in Beta apoptosis is entered as 2
COc1cc(S(=O)(=O)N(CCc2ccccc2)Cc2cccs2)ccc1-n1cnnn1 in Ecoli growth is entered as 0.74

Entries listed so far that contain bromine (2):
SMILES	T cruzi inh	rRNA inh HTS	rRNA inh HTS OD600	rRNA inh HTS RFP	Beta apoptosis	Ecoli growth	Bfl-1 A1 inh	UCH37 inh	MLL AF4-AF9 inh	FGF22 binding
O=C(c1ccco1)N(Cc1cccc([N+](=O)[O-])c1)c1ccc(Br)cc1	-3	-14	-9	0.4	-5	0.69	-0.1	3.9	3.1	i
CCn1c(CNC(=O)c2ccco2)nnc1SCC(=O)Nc1ccc(Br)cc1F	12	.	.	.	-7	0.67	0.1	-0.7	.	.

Later entries:
SMILES	T cruzi inh	rRNA inh HTS	rRNA inh HTS OD600	rRNA inh HTS RFP	Beta apoptosis	Ecoli growth	Bfl-1 A1 inh	UCH37 inh	MLL AF4-AF9 inh	FGF22 binding
Cc1cc(C(=O)CSc2nc(N)cc(N)n2)c(C)n1-c1cccc(C(F)(F)F)c1	12	6	15	6.3	-2	0.66	0.2	2.9	14	i
NCCCC[C@H](NC(=O)C1CCNCC1)c1nnc([C@@H](N)CO)o1	-21	26	19	-5.6	0	.	-0.7	-0.6	11	i
CC(NC(=O)c1ccc(Cl)cc1)c1nnc(SCC(=O)NC2=NCCS2)n1C (centres undefined)	-1	-1	6	-2.2	-8	0.62	0.3	4.5	1.8	i
COC(=O)c1sc(NC(=O)CSc2nncs2)c(C(=O)OC)c1C	14	.	.	.	1	0.71	-1.2	-1.5	.	.
Cc1cc(=O)[nH]c(SCC(=O)c2c(N)n(C)c(=O)n(C)c2=O)n1	0	.	.	.	-1	0.7	0.1	2.4	.	.
N#Cc1ccc(C(=O)NC2CCCc3ccccc32)cc1 (centres undefined)	-17	-2	-3	-5.9	-4	0.69	0.5	-1.3	0.3	i
O=C(CNC(=O)c1ccccc1C(=O)O)c1ccccc1	-13	.	.	.	-2	0.66	-0.1	2.3	.	.
COc1ccc(S(=O)(=O)N2CCOCC2)cc1NC(=O)CSc1ccc(F)cc1	.	.	.	.	1	0.7	-0.7	1.7	-2.5	i
O=C(CSc1nnc(-c2ccoc2)o1)N1CCOCC1	-3	.	.	.	0	0.68	0.7	-0.1	.	.
Cc1nnc(NC(=O)CSc2nccn2Cc2ccc(F)cc2)s1	-13	8	3	0.1	4	0.73	0.6	4.4	-2.0	i
Cc1ccc(CN=c2c([N+](=O)[O-])nn(-c3cccc(Cl)c3)n2O)cc1	24	-24*	-19*	10*	1	0.65	0.5	2.5	4.6	i
Cn1nccc1C(=O)N1CCN(c2ccccc2Cl)CC1	15	1	-4	-0.7	0	0.74	0.0	4.1	-0.5	i
CSc1nnc2c(=O)[nH]c(=O)n(C)c2n1	.	8	9	-3.4	.	0.64	.	7.8	-3.0	i
CCOC(=O)c1cnn(-c2ccccc2)c1NC(=O)c1ccccc1	6	.	.	.	5	0.72	-0.2	4.8	.	.
Cc1cc(C)n(C(C)CNS(=O)(=O)c2ccccc2)n1 (centres undefined)	4	6	0	0.8	1	0.65	-0.2	-1.5	-0.5	i
